Bead autofluor = flagged as autofluorescent in microsphere protease counterscreen. fluorescence intensity (concentration not given with the values). AID 624483. compound autofluorescence counterscreen, microsphere flow cytometry; stronger effect = higher value. 360,000 tested, 3.1% active;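 active = at least 3 SD above the mean of all compounds, about 16000 in these data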;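 also: 100 nL of 1 mM stock went into each well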
* marks the source's active call; other numbers are inactive results. This is a subset; rates above refer to the full screens.

nr	Structure	Bead autofluor
1	COc1cccc(CNc2nc3cc(-c4ccccc4C)sc3c(=O)n2C)c1	3849
2	COc1ccc(NS(=O)(=O)c2ccc(C)c(C(=O)NCc3ccccc3CN3CCCC3)c2)cc1	4562
3	FC(F)(F)c1ccccc1Cc1c(-c2ccccc2)nc2c3ccccc3ccn12	6461
4	Nc1[nH]c(C(=O)c2ccccc2)c(-c2ccc(Br)cc2)c1C(=O)NC1CCCCC1	5521
5	CC(C)S(=O)(=O)NC(=O)C1(C)CCN1C(=O)Cc1ccccc1 (centres undefined)	3963
6	CCCc1nc2ccc(Cl)cn2c1Cc1ccsc1	6141
7	COc1cccc(C(NC(C)=O)c2nc(-c3cccc(C(=O)O)c3)cs2)c1 (centres undefined)	3749
8	CCCS(=O)(=O)NC(=O)C1(C)CCCN(C(=O)c2cc3ccccc3s2)C1 (centres undefined)	3524
9	CCOC(=O)[C@]12CCCC=C1N(Cc1ccc(Cl)cc1Cl)C(=O)[C@H](CC(=O)NCCCOC)C2	5679
10	CC(=O)Nc1cccc(-c2ccnc3c2CC(C)(C(=O)Nc2ccc(Cl)cc2)O3)c1 (centres undefined)	2885
11	COc1ncccc1-c1cc2nc(NCCCN(C)C)n(C)c(=O)c2s1	3945
12	CN1C(=O)[C@H]2[C@@H](c3ccccc3)N[C@]3(CCCN(Cc4ccco4)C3=O)[C@H]2C1=O	3722
13	Cn1nc(N)c2ncc(C(Cl)(Cl)Cl)nc21	3741
14	COc1ccc(C(O)c2ncc(-c3ccc4ccccc4c3)[nH]2)cc1F (centres undefined)	2995
15	COC(=O)N1CCCCC1c1cc(C(=O)N2CCOCC2)no1 (centres undefined)	3583
16	Nc1ccn(CCCNCC(c2ccccc2)c2ccccc2)c(=O)n1	3505
17	O=c1c2ccccc2sn1-c1ccccc1F	3835
18	CCOc1ccc(NC(=O)c2ccc(F)c(S(=O)(=O)N3CCCC3)c2)cc1	4527
19	COc1ccccc1NC(=O)N(C)C[C@@H]1OCc2cnnn2CCCC(=O)N([C@H](C)CO)C[C@@H]1C	3749
20	CCOC(=O)[C@]12CCC=C1N(Cc1ccccc1)C(=O)[C@H](CC(=O)N1CCCC1)C2	5782
21	CCc1nc2c(OCCn3cccc3)cccn2c1N(C=O)Cc1ccccc1	4151
22	COCOc1cccc(CN2CCC2(C)C(=O)NCCNC(C)=O)c1 (centres undefined)	3894
23	CC(=O)C1=CCC(c2ccco2)N(S(=O)(=O)c2ccc(C)cc2)C1 (centres undefined)	5555
24	CC1(c2nnnn2-c2ccc3c(c2)OCCO3)CCC(=O)N1CC1CCCCC1 (centres undefined)	5156
25	CCOC(=O)C1=C(COC(=O)/C=C/c2ccc(F)cc2)NC(=O)NC1C (centres undefined)	3027
26	C[C@H]1CN(CCc2ccccc2)C(=O)[C@@H]1CC(=O)Nc1ccc(Br)cc1	2852
27	CN(Cc1c(C(=O)N/N=C/c2c(F)cccc2Cl)nnn1-c1nonc1N)C1CCCCC1	4183
28	COC(=O)c1sccc1-n1cc2c(c1-c1ccccc1)c(=O)n(C)c(=O)n2C	5846
29	O=C(Nc1ccccc1F)c1ccc2sc([C@@H]3O[C@H](CO)[C@H](O)[C@H](O)[C@H]3O)nc2c1	3775
30	COc1ccc(CN(C)C[C@@H]2OCCCC[C@@H](C)Oc3ccc(N(C)C)cc3C(=O)N([C@H](C)CO)C[C@@H]2C)cc1	3809
31	COc1cc(Cl)c(C)cc1NC(=O)c1ccccc1NC(=O)CN1CCN(C(C)=O)CC1	3677
32	O=C(NC(c1ccc(-c2ccccc2)cc1)c1cnccn1)C1CCN(Cc2ccc3c(c2)OCO3)CC1 (centres undefined)	3113
33	Cc1cc(Br)ccc1NC(=O)CCCOc1cc(=O)n(C)c2ccccc12	3351
34	CCc1nc2ccc(C(=O)N3CCN(C)CC3)cn2c1N(C)CCCc1ccccc1	3545
35	Cc1noc(NS(=O)(=O)c2ccc(NC(=O)/C=C/c3ccc(Cl)cc3Cl)cc2)c1C	3380
36	CCCN(CCC)Cc1cc(=O)oc2cc(OC)ccc12	5547
37	C[C@@H](c1ccccc1)N1C[C@H](COCc2ccccc2)Oc2cc(N3CCC[C@H]3CO)ccc2S1(=O)=O	7498
38	O=C(NCc1cccc(Cl)c1)c1cccc2c(-c3cccnc3)coc12	3965
39	CCc1nc2c(OCc3cc(Cl)cc(Cl)c3)cccn2c1N(C=O)Cc1ccccc1	4269
40	Cc1ccc2ccccc2c1C(O)c1ncc(-c2ccc(F)cc2)[nH]1 (centres undefined)	2796
41	O=C1C(=Cc2cccc(O)c2O)SC(=S)N1CCCN1CCOCC1	3712
42	CC(C)Oc1ccc(CN2CCC2(C)C(=O)NCc2ccc(C(F)(F)F)cc2)cc1 (centres undefined)	4111
43	N#Cc1ccc(NC(=S)/N=C(\N)c2ccccc2)cc1	5552
44	COc1ccc2[nH]cc(CCNC(=O)/C=C/[C@H]3O[C@@H](n4cc(C)c(=O)[nH]c4=O)C[C@@H]3O)c2c1	5204
45	O=C(Nc1nnc([C@H]2C[C@H](O)[C@@H](CO)O2)s1)Nc1ccccc1Oc1ccccc1	3870
46	CCOc1ccc(CCN2C(=O)C(=O)N([C@@H](Cc3ccccc3)CN3CCC[C@H]3CN3C(=O)C(=O)NC[C@@H]3Cc3ccccc3)C[C@@H]2Cc2ccc(O)cc2)cc1	4306
47	COc1ccc(Br)c(C(=O)OCC(=O)NC2CCCCCCC2)c1	4058
48	COCOCCn1cc(CN2CCS(=O)(=O)N(Cc3ccc(-c4cccc(CO)c4)cc3)C(C)C2=O)nn1 (centres undefined)	3593
49	CCCCC[C@H](C)N1C[C@@H](COCc2ccccc2)Oc2cc(N3CCC[C@@H]3CO)ccc2S1(=O)=O	5891
50	Cc1ccccc1NC(=O)Nc1nc(C(N)c2ccccc2)cs1 (centres undefined)	3452
51	Nc1ccccc1C(=O)NN=Cc1cccc([N+](=O)[O-])c1	5756
52	Cc1c(C)c2c(OCC(=O)NCC3CCC(C(=O)O)CC3)cc3c(c2oc1=O)CCC(C)(C)O3 (centres undefined)	5570
53	CCOC(=O)C1=CCN(S(=O)(=O)c2cccc(Cl)c2)C1c1ccc(F)cc1 (centres undefined)	5176
54	Cc1ccc(C(=O)C2C(=O)C3CCC2C3)cc1 (centres undefined)	3536
55	Cc1noc(C)c1C(=O)N1CCC1(C)C(=O)NS(=O)(=O)c1ccc(F)cc1F (centres undefined)	2810
56	COc1ccc(NC(=O)N(C)C[C@H]2Oc3ncc(Br)cc3C(=O)N([C@H](C)CO)C[C@@H]2C)cc1	3792
57	COc1ccc(C(N)c2csc(Nc3ccc(C(=O)c4ccccc4)cc3)n2)cc1 (centres undefined)	3369
58	CCCCN1C(=O)CC2CCOC21C (centres undefined)	3455
59	C[C@H]1CN([C@@H](C)CO)S(=O)(=O)c2ccc(Br)cc2O[C@@H]1CN(C)Cc1ccccc1	3773
60	CCN(CC(=O)Nc1ccc(NC(C)=O)cc1)C(=O)C1CC1	2805

Remaining list, next part:
nr	Structure	Bead autofluor
61	O=C1NC(Cc2ccc(O)cc2)c2nc3ccccc3c(=O)n2-c2ncccc21 (centres undefined)	2930
62	O=C(NC(c1ccc(-c2ccccc2)cc1)c1cnccn1)C1CCN(CCOc2ccc(Cl)cc2Cl)CC1 (centres undefined)	4383
63	COc1ccc(-n2nnnc2C(CCc2ccccc2)N2CCN(C/C=C/c3ccccc3)CC2)cc1 (centres undefined)	6559
64	COc1ccc(S(=O)(=O)NC(=O)C2(C)CCN2C(=O)Cc2ccccc2)cc1OC (centres undefined)	3815
65	C[C@H](CO)N1C[C@H](C)[C@@H](CN(C)C(=O)CN2CCOCC2)Oc2ncc(-c3cncnc3)cc2C1=O	2914
66	CN(C)c1ccc(CC(=O)N2CCCC(c3cc(C(=O)Nc4ccccc4)no3)C2)cc1 (centres undefined)	4095
67	COc1ccc(C(O)c2nc(-c3cc(F)cc(F)c3)cs2)cc1 (centres undefined)	4144
68	CC(C)OC(=O)N(C)C[C@@H]1OCc2cnnn2CCCC(=O)N([C@H](C)CO)C[C@H]1C	4017
69	CC1(C(=O)Nc2cnc3ccccc3c2)CCN1C(=O)C/C=C/c1ccccc1 (centres undefined)	3033
70	CSCCC(c1nnnn1C(C)(C)C)N1CCC(n2c(=O)[nH]c3ccccc32)CC1 (centres undefined)	4658
71	CCCNC(=O)N(C)C[C@@H]1Oc2ncc(Br)cc2C(=O)N([C@H](C)CO)C[C@@H]1C	3545
72	COCCNc1nc(NCCOc2ccccc2Cl)c2sccc2n1	3992
73	Cc1cccc(C)c1NC(=O)C(C)NCc1cccs1 (centres undefined)	3784
74	C[C@@H]1CN([C@H](C)CO)S(=O)(=O)c2ccc(C#CC3CCCCC3)cc2O[C@H]1CN(C)C(=O)Cc1ccncc1	5337
75	Cc1cc(Br)cn2c(Cc3ccccc3)c(-c3ccccc3)nc12	6774
76	Cc1cc(C)cc(CC(=O)N2CCC2(C)C(=O)NS(=O)(=O)c2ccc(C#N)cc2)c1 (centres undefined)	3800
77	CCOc1ccc(CCN2C(=S)N([C@@H](Cc3ccc(O)cc3)CN3CCC[C@@H]3CN3C(=S)NC[C@@H]3Cc3ccccc3)C[C@@H]2CC(C)C)cc1	5790
78	CCC(C)[C@H](N)C(=O)N[C@H]1CCC2C3CC=C4C[C@@H](O)CC[C@]4(C)C3CC[C@@]21C (some centres undefined)	3898
79	COc1ccc(-c2ccc(C(=O)NCc3ccco3)c3occc23)c(C)c1	3647
80	COc1ccc([C@H]2N[C@]3(CCCN(Cc4ccc(F)cc4)C3=O)[C@H]3C(=O)N(Cc4ccccc4)C(=O)[C@@H]23)cc1	3765
81	CN(C)C(=O)c1cccc(-c2cc(NC=O)c3ncc(-c4ccc(F)cc4)n3c2)c1	4254
82	CCOC1=C2CN(S(=O)(=O)c3ccc(C)cc3)[C@H](c3cccc4ccccc34)C[C@H]2[C@H]2C(=O)N(c3ccccc3)C(=O)[C@H]2C1	4413
83	CN(C)c1ncnc2c1ncn2[C@H]1CN(Cc2ccc3c(c2)OCO3)C[C@@H](CO)O1	3759
84	Cc1ccc(OC(=O)N(C)C[C@H]2OCc3cn(nn3)CCCC(=O)N([C@H](C)CO)C[C@@H]2C)cc1	3802
85	CN(C)CCCNc1nc2cc(-c3ccccc3)sc2c(=O)n1C	3522
86	COc1ccc(/C(N)=N/OC(=O)c2ccc3ccccc3c2)cc1OC	3683
87	COc1ccc(S(=O)(=O)Nc2ccc3c(c2)C(=O)N([C@H](C)CO)C[C@H](C)[C@@H](CN(C)C(=O)Nc2c(C)noc2C)OCCCC[C@H](C)O3)cc1	3281
88	COc1ccc(CN2CCC2(C)C(=O)Nc2ccc(OC)c(OC)c2)cc1 (centres undefined)	3958
89	Cc1ccccc1-c1cc2c(c3c1ccn3C)C1CCC2C1 (centres undefined)	5502
90	CCNC(=O)C1CCCN(C(=O)c2ccc(OC)cc2)CC1 (centres undefined)	3623
91	C=CCC1(CC=C)CCCN1C(=O)c1ccc2oc(CCCC)nc2c1	3206
92	COc1cccc(Nc2nc3cc(C)ccc3cc2C)c1	3757
93	O=C1NC(Cc2ccccc2)c2nc3ccccc3c(=O)n2-c2cc3ccccc3cc21 (centres undefined)	4293
94	C[C@H](CO)N1C[C@H](C)[C@H](CN(C)C(=O)Oc2cccc3ccccc23)OCc2cnnn2CCCC1=O	3409
95	Cc1ccc(-c2noc(CCC(=O)Nc3cccc(C(=O)NC4CC4)c3)n2)cc1	3502
96	C[C@@H]1CN([C@@H](C)CO)C(=O)c2cc(Br)cnc2O[C@H]1CN(C)Cc1ccccc1C(=O)O	3153
97	C#CCN(C(=O)C1CCC(=O)N(CCc2cccc(F)c2)C1)C1CCCCC1 (centres undefined)	4271
98	CCc1nc2ccc(C(=O)NCCCn3ccnc3)cn2c1N(C)C(=O)C1CCCCC1	2863
99	CC(=O)NC(c1ccc(F)c(F)c1)c1nc(-c2cnn(C)c2)cs1 (centres undefined)	3722
100	COc1ccc(-c2csc(C(O)c3cccc(Cl)c3)n2)cn1 (centres undefined)	3876
101	Cc1cc(-c2ccc(S(=O)(=O)NCc3ccc(Cl)cc3)cc2)on1	3441
102	CCCCCC(=O)N1C[C@@H](O)[C@H](n2cc(-c3ccc(F)cc3)nn2)C[C@@H]1c1ccc(Cl)cc1	3748
103	CCCc1c(C(=O)N/N=C/c2c[nH]c3ccccc23)nnn1-c1nonc1N	3493
104	CCCc1nc2cc(C)c(Br)c(C)n2c1Cc1ccccc1OC	4873
105	CCn1cc(/C=C(\NC(=O)c2cc(OC)c(OC)c(OC)c2)C(=O)N2CCOCC2)c2ccccc21	2909
106	COc1ccc(Cn2c(=O)oc3ccccc32)cc1OC	3084
107	C[C@@H]1CN([C@@H](C)CO)C(=O)c2cc(Br)cnc2O[C@H]1CN(C)C(=O)Nc1ccc2c(c1)OCO2	3074
108	CCOC(=O)[C@]12CCCC=C1N(Cc1ccc3c(c1)OCO3)C(=O)[C@H](CC(=O)NCc1cccs1)C2	4372
109	O=C(NCc1ccc(F)cc1)Nc1nnc([C@@H]2C[C@H](O)[C@@H](CO)O2)s1	3526
110	C[C@@H]1CN([C@@H](C)CO)S(=O)(=O)c2ccc(Br)cc2O[C@H]1CN(C)C(=O)C1CCOCC1	2877
111	CN(C(=O)C1Cc2c(-c3ccccc3Oc3ccccc3)ccnc2O1)c1ccccc1 (centres undefined)	3262
